From PubChem BioAssay
PABP polyA inh = PABP-poly(A) binding inhibition. PABP-poly(A) RNA binding, fluorescence polarization. inhibition, % at 35 µM. 290,000 compounds, 1% hits;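 active = 50% or more with normal probe brightness, or confirmed in later tests; inconclusive = above 50% with abnormal brightness, or retests that disagree; inactive = below 50% or failed in later tests; about a fifth of its hits are not listed in these tables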;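 also: calls also rest on retests at 20 µM and on dose response follow-up; controls were probe without protein and protein plus probe with vehicle; some compounds called inactive have numbers as strong as hits; many hits fall short of the cut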
MT1-MMP act inh = inhibitors of human MT1-MMP activation | AID 651647 | HT1080 RFP-PRO-GFP cells, GFP/RFP ratio fluorescence, overnight; percent of plate control window, DMSO zero | GFP/RFP ratio change, % at 20 µM | 360,000 compounds, 0.061% hits;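 active = GFP/RFP ratio change of at least 30% with cell ATP level not reduced by more than half and red fluorescence within 50% of control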; also: strong numbers were not always called active
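Assay system: HT1080 cells carrying an RFP-PRO-GFP reporter | Dosing: Single dose of 20 µM compound, 1% DMSO final | Incubation: Cells overnight before dosing, compound overnight, 37 °C, 5% CO2 | Evaluation: GFP/RFP fluorescence ratio | Control set: DMSO and RFP-L50D-GFP cell wells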
CSC inhib = blocks cancer stem cells | 300,000 compounds, 1.1% hits | AID 2717 | inhibition, % at 7.5 µM | cancer stem cell-like cells viability, luminescence;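 active = mean at 75% or more and at least half the replicates too; inconclusive = mean and replicates disagree; tested in HMLE shEcad cells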;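 also: 0% = median of negative and 100% = median of positive control wells; the first replicate is given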
Rce1 inhib = blocks yeast Ras-converting enzyme. 290,000 compounds, 0.27% hits. calls only. yeast membranes, quenched prenylated peptide cleavage fluorescence. Q03530. AID 2563;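 active = fall in fluorescence gain of 50% or more versus controls, with final raw signal at or below 3038400; inconclusive = same 50% fall but final raw signal above 3038400; inactive = fall in fluorescence gain under 50%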;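 also: plate controls were neutral control wells for no effect and wells lacking membranes for full effect; tested at 10 µM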
Target sequence (Q03530 whole entry, looked up): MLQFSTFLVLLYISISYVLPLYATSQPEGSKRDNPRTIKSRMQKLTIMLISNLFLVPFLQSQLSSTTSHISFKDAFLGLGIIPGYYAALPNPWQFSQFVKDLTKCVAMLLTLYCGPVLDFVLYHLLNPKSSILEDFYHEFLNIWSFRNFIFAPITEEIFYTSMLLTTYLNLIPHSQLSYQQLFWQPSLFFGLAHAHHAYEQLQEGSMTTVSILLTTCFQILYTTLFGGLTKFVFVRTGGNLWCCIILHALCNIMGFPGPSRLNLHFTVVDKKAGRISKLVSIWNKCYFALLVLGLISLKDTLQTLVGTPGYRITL
Env fusion inh = inhibitors of HIV Env-mediated cell fusion; 360,000 compounds, 1.1% hits; inhibition, % at 12.3 µM; HeLa-JRFL Env/CEM21 cell fusion, luciferase; AID 651610;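 active = mean replicate inhibition score of at least 50 and every replicate individually at or above 50; inconclusive = only one of the two criteria met; inactive = mean below 50 and not all replicates reaching 50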;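 also: 0% = plate neutral controls and 100% = maraviroc near 300 nM; one replicate is shown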
Yeast UUG start = yeast start codon fidelity modulation | S. cerevisiae UUG-firefly luciferase reporter, luminescence/redox ratio | activity score, % at 18.7 µM | 350,000 compounds, 0.13% hits;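 active = replicate mean at a twofold rise or more, about +100% in these data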;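 also: firefly luciferase made from a UUG start codon reports start codon fidelity; reporter light over untreated wells divided by growth signal over untreated wells; some hits fall short of that in this replicate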
eIF4H inh = inhibitors of RNA binding by human eIF4H. Q15056. eIF4H fluorescence polarization binding assay. inhibition, % at 35 µM. 290,000 compounds, 0.94% hits. AID 2012;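 active = 50% or more with normal probe brightness, or confirmed in later tests; inconclusive = above 50% with abnormal brightness, or retests that disagree; inactive = below 50% or failed in later tests; about a fifth of its hits are not listed in these tables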;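 also: calls also rest on retests at 20 µM and on dose response follow-up; 0% = protein and probe with vehicle and 100% = probe without protein; strong numbers were not always called active; many hits fall short of the cut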
MT1-MMP act inh RFP = further read-out of MT1-MMP act inh, marked with its call; RFP signal change, %; measured here: RFP expression control read;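 0 = vehicle wells; hits needed this value within 50% of zero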
* = called active by the depositor; i = inactive; ? = inconclusive; · = not tested or not shown; + = active, no number. The order is random (roughly 3% active in at least one column).

No.	SMILES	PABP polyA inh	MT1-MMP act inh	MT1-MMP act inh RFP	CSC inhib	Rce1 inhib	Env fusion inh	Yeast UUG start	eIF4H inh
1	O=C(c1ccc(-c2ccccc2)cc1)C1CCCN(C(=O)c2cncs2)C1 (stereo unspecified)	1	-6	-4	-10	i	16	-41	-4
2	Cc1ccc(NC(=O)CCc2ccc(S(=O)(=O)N3CCOCC3)cc2)c(Cl)c1	·	-3	-1	9	·	·	-30	·
3	CN(Cc1c(F)cccc1Cl)C(=O)c1cccc(S(=O)(=O)NCc2ccccc2)c1	·	3	1	·	i	9	-4	·
4	Cc1noc(C)c1CSc1ncnc2sc(C)c(C)c12	1	3	3	-4	i	·	·	0
5	COc1ccc(OC)c(S(=O)(=O)NCC(c2ccco2)N2CCc3ccccc32)c1 (stereo unspecified)	·	-1	-1	-7	i	?	21	·
6	COc1ccc(NC(=O)c2cc(-c3cc(Cl)ccc3OC)n[nH]2)cc1OC	·	0	-1	·	·	5	-22	·
7	O=C(Nc1cccnc1)c1ccccc1-c1ccccc1	-18	1	2	-10	i	9	-16	-2
8	Cc1ncc(CSc2nccc(=O)[nH]2)c(CO)c1O	2	2	1	-10	i	-4	3	-2
9	C/C(CC(=O)N1CCN(C=O)CC1)=N\NC(=O)c1cccc([N+](=O)[O-])c1	-10	5	2	-10	i	4	-19	-1
10	COc1ccc(-c2ccc(C(=O)NCc3ccncc3)c3occc23)c(C)c1	·	4	-28	·	·	40	-3	·
11	CCC12CN(C(=O)c3ccc([N+](=O)[O-])cc3)CC(CC)(CN(C(=O)c3ccc([N+](=O)[O-])cc3)C1)C2=O	0	2	1	-11	i	9	18	-3
12	O=C(Nc1ccccc1)Nc1nncs1	-6	2	3	-10	i	·	-11	-13
13	COc1ccc(S(=O)(=O)N2CCN(C(=O)c3cccc(S(=O)(=O)N4CCCC4)c3)CC2)cc1	·	0	-1	·	·	9	9	·
14	C1CN(CC2CCN(c3nc4nonc4nc3N3CCSCC3)CC2)CCO1	-3	-5	-3	0	i	-19	0	-13
15	CCN(C(=O)COC(=O)CCc1c[nH]c2ccccc12)c1c(N)n(Cc2ccccc2)c(=O)[nH]c1=O	·	0	1	·	i	20	7	·
16	O=S(=O)(Nc1ccccc1)c1ccc(-c2csnn2)cc1	0	8	-2	5	i	5	-7	-8
17	N#Cc1c(SCc2ccc(Cl)cc2)sc(C(=O)c2ccccc2)c1N	8	2	3	22	i	·	-1	-16
18	O=C(C1CCN(S(=O)(=O)c2ccc(Cl)c(C(F)(F)F)c2)CC1)N1CCC1	·	0	-4	9	·	2	12	·
19	CCN1C(=O)c2cccc3c(S(=O)(=O)NCC4CCCO4)ccc1c23 (stereo unspecified)	1	10	11	3	i	5	·	6
20	CC1(c2ccc(Cl)cc2)NC(=O)N(CC(=O)NC2CCCCC2)C1=O (stereo unspecified)	·	0	-4	22	·	-16	-20	·
21	O=C1c2ccccc2NC(c2ccc(Br)o2)N1O (stereo unspecified)	·	3	1	6	·	-151	-4	·
22	CC(=O)N1CCN(c2ccc(NC(=O)c3cccc(OCc4ccccc4)c3)cc2)CC1	-2	7	-5	18	i	·	-6	-5
23	N#Cc1ccccc1OCC(=O)Nc1nc(-c2ccccn2)cs1	·	7	7	·	·	-15	-30	·
24	O=C(COC(=O)c1ccccc1NCCO)NCCc1ccccc1	·	3	11	-4	i	3	·	·
25	O=C1NC(=O)c2c(Br)c(Br)c(Br)c(Br)c21	·	1	1	·	·	-296	-17	·
26	O=C(c1ccccc1F)N1CCN(c2ccccc2F)CC1	-8	2	2	-17	i	-4	-14	-6
27	CCOC(=O)c1ccccc1NC(=O)c1ccc(NS(C)(=O)=O)cc1	-7	1	0	17	i	·	·	-2
28	CCOC(=O)c1c(C)c(C(=O)N(C)C2CCCCC2)c(C)n1C	8	6	3	-2	i	·	-11	-12
29	Cc1ccc(C)c(Nc2nn3c(=O)c4ccc(C(=O)NCc5cccnc5)cc4nc3s2)c1	-33	2	0	60	i	24	-19	-8
30	CCn1c(=N)n(CCOc2ccc(OC)cc2)c2ccccc21	13	-7	2	-14	i	-13	4	-2
31	c1ccc(OCc2ccc(CCCN3CCOCC3)cc2)cc1	-3	1	-3	-14	i	5	-11	-6
32	Cc1cc(NC(=O)CSc2nnc(-c3ccoc3C)o2)no1	0	13	15	-11	i	-37	-6	7
33	CSc1cccc(NC(=O)CNC(=O)C2CCCCC2)c1	5	1	3	-5	i	-154	-14	2
34	COc1ccccc1CNc1cccc(C)n1	·	4	0	·	·	4	-17	·
35	COc1ccc(NS(=O)(=O)c2cccc(NC(=O)NCCCl)c2)cc1	-4	2	1	-1	i	-10	·	-8
36	CC1NC(=S)N(C2CCCCC2)C1=O (stereo unspecified)	-20	0	2	1	i	0	·	8
37	COC(=O)c1cccc(NC(=S)Nc2ccc(Cl)c(Cl)c2)c1	1	4	5	33	i	-46	-18	-6
38	COc1ccc(/C=C/C(=O)c2ccc(NC3=NCCCS3)cc2)cc1OC	12	-5	-16	52	i	-1	·	-4
39	CCOC(=O)COc1cc(Br)c(/C=N/Nc2ccccc2)cc1OC	10	0	-9	·	i	-33	-10	10
40	CC(C)Cc1ccc(CN2CCCC(NC(=O)c3cccc(-n4cnnc4)c3)C2)cc1 (stereo unspecified)	-8	7	0	-4	i	29	-24	-4
41	CCCNc1nc2nc3ccccn3c(=O)c2cc1C(=O)NCCN1CCOCC1	12	-4	-3	-13	i	-7	-27	3
42	Cc1c(CC(=O)O)c(=O)oc2c(C)c(OCc3ccc(F)cc3F)ccc12	11	0	2	·	i	-9	-15	0
43	O=C(CN1CCN(CC(=O)c2ccc(F)cc2)CC1)Nc1ccccc1Cl	4	6	6	-5	i	·	-10	-1
44	CN(Cc1ccccc1)C(=O)c1ccc(NC(=O)Cc2ccc(NC(=O)C3CCCN(C(=O)C4CCC4)C3)cc2)cc1 (stereo unspecified)	·	2	-17	·	·	-20	-7	·
45	COc1nc(N(C)C)nc(N(C#N)S(=O)(=O)c2ccc(C)cc2)n1	-1	0	4	-15	·	-2	19	8
46	COc1ccc(-c2cc(C(=O)n3cnc4ccccc43)c3ccccc3n2)cc1	-8	3	7	6	i	·	-14	-6
47	COc1ccc(-c2cc(-c3nnc(COC(=O)CC4CC5CCC4C5)o3)c3ccccc3n2)cc1OC (stereo unspecified)	-8	8	1	-1	i	-8	·	11
48	O=C(O)/C(=C\c1ccccc1)c1ccc2ccccc2c1	·	-1	2	6	i	-9	-8	·
49	Cc1cnc(C(=O)OCC(=O)Nc2cccc(S(=O)(=O)N3CCCCC3)c2)cn1	-5	-3	7	-8	i	7	·	-4
50	Cn1nnnc1SCCNCc1ccccc1F	8	3	1	-15	i	-4	-18	2
51	CCOC(=O)N1CCC(Nc2ccc(N3C(=O)C4CCCCC4C3=O)cc2[N+](=O)[O-])CC1 (stereo unspecified)	-6	4	2	17	i	16	0	-10
52	O=C(CCc1nnc(Cc2c[nH]c3ccccc23)o1)NC(C1CC1)C1CC1	-8	2	4	-1	i	21	-12	-4
53	COc1ccc(C(=O)NCCNc2ccc([N+](=O)[O-])cn2)cc1	-3	-1	-4	-2	i	3	-5	-3
54	COc1cc2c(cc1OC)C(c1ccc(N(C)C)cc1)CC(=O)N2 (stereo unspecified)	9	0	-1	-2	i	·	-3	11
55	Cc1cc(-c2ccco2)n(-c2ccccc2)n1	-1	-12	1	-7	i	-85	-26	0
56	Cc1nc(CCNC(=O)Cc2ccccc2)cs1	-4	3	6	·	i	·	-10	13
57	CCCCSc1nnc(-c2ccc(C)cc2)c2ccccc12	0	-1	-1	38	i	26	-14	-3
58	COc1ccc(Cc2nc3ccc(C(=O)NCC(C)(C)OC)cc3o2)cc1	-6	1	-4	-13	i	-31	-10	-4
59	CN(CC(=O)Nc1ccccc1C(F)(F)F)C(=O)COc1ccccc1Cc1ccccc1	·	-8	0	11	·	·	5	·
60	Cc1ccc(NC2=NCC(Cc3ccc(Br)cc3)S2)cc1 (stereo unspecified)	-15	-21	-18	89*	·	29	-15	-6

Continued.
No.	SMILES	PABP polyA inh	MT1-MMP act inh	MT1-MMP act inh RFP	CSC inhib	Rce1 inhib	Env fusion inh	Yeast UUG start	eIF4H inh
61	O=C(NCC(=O)N1CCCCCCC1)c1ccc(Br)o1	·	-1	2	-2	i	-12	-20	·
62	COc1ccc(N(C(=O)c2snc(C(N)=O)c2N)C(C(=O)NC2CCCCC2)c2ccc(C)o2)c(OC)c1 (stereo unspecified)	3	-4	-4	10	i	5	-7	5
63	CCCCNC(=O)C1(C)CCN1C(=O)c1ccc2ccccc2n1 (stereo unspecified)	·	1	6	·	·	-1	-8	·
64	CC(=O)c1cn(CCCCCCCn2cc(C(C)=O)c(=O)[nH]c2=O)c(=O)[nH]c1=O	4	-1	1	-4	·	8	·	0
65	NC(=O)C1CCN(C(=O)Nc2csc3ccccc23)CC1	10	2	5	1	i	-11	-7	16
66	CCOC(=O)c1ccc(S(=O)(=O)N2CCC(N3CCCCC3)CC2)cc1	-16	5	3	·	i	-12	-6	-8
67	CCOC(=O)CSc1nnc(Cc2ccccc2)n1CC1CCCO1 (stereo unspecified)	4	-7	-2	-12	i	-65	-16	0
68	COc1ccc(N(C(=O)CNC(=O)c2ccco2)C(C(=O)NCC2CCCO2)c2ccccc2)cc1Cl (stereo unspecified)	-6	1	4	-35	i	-1	9	-4
69	CCCNC(=O)C1(C)CCCN(C(=O)C2(c3ccc(Cl)cc3)CCCC2)C1 (stereo unspecified)	·	1	-2	·	·	26	32	·
70	Cc1cc(C(=O)N/N=C/c2c3ccccc3cc3ccccc23)n[nH]1	-6	0	-5	·	+	0	-5	-4
71	COc1ccccc1/C=C/C=N/N1CCN(Cc2ccc(Cl)cc2)CC1	7	4	-3	1	i	9	6	3
72	CCCCc1c(O)nc(SCC(=O)O)[nH]c1=O	1	3	4	-2	i	-5	-6	-6
73	Cc1ccc(C(=O)Nc2nccc(C)n2)cc1	0	-1	-2	-17	i	-3	1	3
74	CN(C)c1ccc(/C=N/NC(=O)CN2CCN(c3ccc(F)cc3)CC2)cc1	0	·	·	-19	i	·	·	-5
75	O=[N+]([O-])c1ccc(C(O)CSC(=S)N2CCCCC2)cc1 (stereo unspecified)	1	-4	-6	-6	i	-29	4	2
76	O=C(c1ccccc1NS(=O)(=O)c1cccc([N+](=O)[O-])c1)N1CCOCC1	7	-3	-1	-7	i	-44	-2	-1
77	COc1cccc(C(=O)Nc2ccc(C(=O)c3ccncc3)cc2)c1	8	4	-11	·	i	38	-21	4
78	Cc1ccc(N2CC(C(=O)Nc3nnc(SCC(=O)Nc4cc(C)on4)s3)CC2=O)cc1 (stereo unspecified)	-1	5	6	-11	i	1	-5	11
79	Fc1c(F)c(F)c(CSc2nc3ccccc3[nH]2)c(F)c1F	3	-1	-2	-4	·	-267	-15	-15
80	Cc1[nH]c(C)c(S(=O)(=O)N2CCN(c3cccc(Cl)c3)CC2)c1C(=O)N1CCCC1	-12	-3	1	-7	i	16	8	-10
81	CN(/N=C/c1ccc(O)cc1O)c1ncc(C(F)(F)F)cc1Cl	0	2	0	62	i	9	·	-18
82	CCOCCCNC(=O)C1CCN(S(=O)(=O)N2CCCC2)CC1	?	3	5	-4	i	17	·	11
83	Cc1cc(-c2ccccc2)n(-c2ccc(C(N)=O)cc2)n1	-10	2	1	-10	i	-1	·	-10
